LANA-nucl inh: inhibitors of KSHV LANA-nucleosome binding, primary screen, biochemical, fluorescence polarization, FITC-LANA1-23, chicken nucleosomes. FITC-LANA1-23 / chicken nucleosome fluorescence polarization; hits give low values. z-score (no concentration beside the values). actives 0.3% (n = 51,000);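 active means both repeat wells score below -2 in polarization z-score versus plate sample wells, excluding overly bright wells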;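 further: 100 nL library stock added to about 30 µL; numbers are from one replicate; some results filed as inactive read as strong as hits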
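Assay system: purified chicken nucleosomes with FITC-labelled LANA N-terminal peptide (1-23) / Probe or stimulus: 50 nM FITC-LANA1-23 probe / Compound dosing: pin-transferred compound, 100 nL / Times: compound with peptide–nucleosome mix 10–45 min at room temperature / Technique: fluorescence polarization, 480 nm excitation, 535 nm parallel and perpendicular emission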
BasE inh: BasE siderophore enzyme inhibitors, primary screen, biochemical, Acinetobacter baumannii ATCC 17978, fluorescence polarization; purified BasE, fluorescence polarization binding displacement; inhibition, % (test concentration not listed); actives 0.1% (n = 84,000); AID 485350, 2010;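 active means both replicates above 25% with normal brightness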;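 further: 0% = negative plate control signal and 100% = positive plate control signal; stock transfer was 100 nL into about 30 µL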
An asterisk follows results filed as active; & = joins results of further samples.

What do the screens show for `CC(C)C(=O)NNc1cc(C(F)(F)F)ccn1`?
LANA-nucl inh: 0.82; BasE inh: -0.3

What do the screens show for `CCS(=O)(=O)c1ccc2oc(SCc3ccc(F)cc3)nc2c1`?
BasE inh: -0.5

How did C=CCn1cnc2scc(-c3ccccc3)c2c1=O do in these assays?
LANA-nucl inh: 0.26; BasE inh: -1.4

What do the screens show for `O=C(CC1SC(=NCc2ccccc2)NC1=O)NCc1ccccc1` (stereo not given)?
BasE inh: 3.0

Results for O=C(OC(C(=O)NCc1ccc2c(c1)OCO2)c1ccncc1)c1ccc(Cl)nc1 (stereo not given) ?
LANA-nucl inh: -0.5; BasE inh: 1.7

Results for O=C(NCC(c1ccco1)N1CCCCC1)c1ccccc1C(F)(F)F (stereo not given) ?
BasE inh: -1.5

Results for COc1ccc(/C=N/OCC(=O)Nc2ccc3c(c2)OCO3)c(OC)c1 ?
BasE inh: 0.7

What do the screens show for `COc1cccc(-c2noc(CCC(=O)N3CCCC3)n2)c1`?
LANA-nucl inh: -0.28; BasE inh: -3.1

Results for O=C1N=C(N2CCCC2)S/C1=C\c1ccccc1O ?
BasE inh: 4.2

Results for CCOc1ccc(-n2c(=O)c3cc4c(=O)n(-c5ccc(OCC)cc5)c(=O)c4cc3c2=O)cc1 ?
BasE inh: 0.1

How did O=C(NC1CCCC1)c1cncc(NS(=O)(=O)c2ccccc2)c1 do in these assays?
LANA-nucl inh: 1.4; BasE inh: 0.1

How did COc1cccc(NC(=O)NCc2noc3ccccc23)c1 do in these assays?
LANA-nucl inh: 0.044; BasE inh: 3.0

What do the screens show for `CC(C)N(Cc1ccccc1)C(=O)[C@H]1[C@@H]2C[C@@H]3[C@H]1C(=O)O[C@@H]3C2`?
LANA-nucl inh: -0.89; BasE inh: 1.0

What do the screens show for `Cc1ccc(S(=O)(=O)N(c2nc(NC(C)C)nc(NC(C)C)n2)n2cnnc2)cc1`?
BasE inh: -0.5

What do the screens show for `CCCCS(=O)(=O)NC1=NCN(Cc2ccco2)CN1`?
BasE inh: 0.5

Results for Cc1cc2nc(N3CCc4ccccc4C3)c3ccccc3n2n1 ?
BasE inh: 0.7

How did Cc1cc(=O)n2c3c(cc(S(=O)(=O)N(C)c4ccccc4)cc13)CCC2 do in these assays?
LANA-nucl inh: -0.81; BasE inh: 2.5

What do the screens show for `Cc1ccc(C2C(C(=O)c3ccco3)=C(O)C(=O)N2c2ccccn2)cc1` (stereo not given)?
BasE inh: 0.6

How did Cc1ccccc1S(=O)(=O)Cc1ccc(C(=O)NCCN2CCN(c3cccc(Cl)c3)CC2)o1 do in these assays?
LANA-nucl inh: 0.032; BasE inh: -1.0

What do the screens show for `Cc1[nH]nc2c1C(=O)CC(C)(C)C2`?
LANA-nucl inh: 0.57; BasE inh: 0.1

Results for CC(=O)Nc1ccc(NC(=O)C(C)C)nc1 ?
LANA-nucl inh: 0.34; BasE inh: -0.6

What do the screens show for `COc1ccc(C2=NN(C(=O)c3ccccc3O)C(O)(C(F)(F)F)C2)cc1` (stereo not given)?
BasE inh: 4.8

How did O=S1(=O)C=CC(Nc2ncnc3c2oc2ccccc23)C1 (stereo not given) do in these assays?
BasE inh: -2.5

How did CCN1CN=C(SCc2c(C)c(C)c(C)c(C)c2C)NC1 do in these assays?
BasE inh: 0.0

What do the screens show for `O=C(Cc1nc2scc(-c3ccccc3)c2c(=O)[nH]1)N1CCOCC1`?
BasE inh: 0.8

What do the screens show for `Cc1ccc(CCC(=O)C(C#N)c2nc3ccccc3s2)o1` (stereo not given)?
LANA-nucl inh: 2.6; BasE inh: 1.4

How did CC(OC(=O)C1=NN(c2ccccc2)C(=O)CC1)C(=O)Nc1ccc(S(N)(=O)=O)cc1 (stereo not given) do in these assays?
BasE inh: 2.7

Results for O=C(c1ncoc1-c1cccs1)N1CCN(C(c2ccccc2)c2ccccc2)CC1 ?
LANA-nucl inh: 0.47; BasE inh: 2.2

What do the screens show for `CN/N=C/c1cn(-c2ccccc2)nc1-c1cccs1`?
BasE inh: -0.6

Results for Cc1ccc(S(=O)(=O)N(CCO)Cc2cc3cc(C)c(C)cc3[nH]c2=O)cc1 ?
LANA-nucl inh: 0.7; BasE inh: 1.3

How did CC(=O)Nc1ccccc1OCC(=O)N(Cc1ccccc1)C(C)C do in these assays?
BasE inh: -0.1

What do the screens show for `CCn1c(C)c(C)c2cc(C(=O)NCCCN3CCCC3)ccc21`?
LANA-nucl inh: -0.27; BasE inh: -1.3

What do the screens show for `CC(C)c1ccc(OCc2nnc(SCC(=O)NC3CCCCC3)o2)cc1`?
LANA-nucl inh: 0.36; BasE inh: 0.0

How did O=C(CN1CCc2ccccc2C1)NC1CCCC1 do in these assays?
LANA-nucl inh: -0.53; BasE inh: 2.5

What do the screens show for `O=C(O)c1ccc(C(=O)O)c(C(=O)O)c1`?
LANA-nucl inh: 2.1; BasE inh: -4.0

Results for O=C(N/N=C1\CCCCc2ccccc21)c1cccnc1 ?
BasE inh: -0.7

Results for Cc1noc2nc(C(F)(F)F)cc(C(F)(F)F)c12 ?
BasE inh: 0.2

Results for O=C(Nc1cccc(Cl)c1Cl)NC1CC1 ?
LANA-nucl inh: -0.58; BasE inh: -0.1

What do the screens show for `O=C(Oc1ccc(F)cc1)N1CCOCC1`?
LANA-nucl inh: -0.91; BasE inh: 1.5

How did N#CCSc1nnc(-c2ccc(Cl)cc2Cl)n1N do in these assays?
BasE inh: 1.6

What do the screens show for `CC1(C)CC(=O)C(C(C2=C(O)CC(C)(C)CC2=O)c2ccccc2)=C(O)C1`?
BasE inh: 0.5

What do the screens show for `CCOc1cc(N2CCOCC2)c(OCC)cc1NC(=O)c1cc(S(=O)(=O)N(C)C)ccc1Cl`?
BasE inh: 1.5

Results for CCn1c(CSc2nc(C)cc(C)n2)nnc1SCc1ccccc1 ?
LANA-nucl inh: 2.7; BasE inh: -3.9

What do the screens show for `CNS(=O)(=O)c1cccc(C(=O)OCC(=O)N2CCc3ccccc32)c1`?
BasE inh: 0.6

How did Nc1ccc(S(=O)(=O)c2ccc(N)cc2)cc1 do in these assays?
LANA-nucl inh: 0.36&0.002&-0.61; BasE inh: -2.4&-1.6

11 structures from above, sorted by formula weight, smallest number first:
What do the screens show for `O=C(O)c1ccc(C(=O)O)c(C(=O)O)c1`?
LANA-nucl inh: 2.1; BasE inh: -4.0

Results for Cc1noc2nc(C(F)(F)F)cc(C(F)(F)F)c12 ?
BasE inh: 0.2

Results for O=C(N/N=C1\CCCCc2ccccc21)c1cccnc1 ?
BasE inh: -0.7

How did N#CCSc1nnc(-c2ccc(Cl)cc2Cl)n1N do in these assays?
BasE inh: 1.6

What do the screens show for `CCn1c(C)c(C)c2cc(C(=O)NCCCN3CCCC3)ccc21`?
LANA-nucl inh: -0.27; BasE inh: -1.3

How did CC(=O)Nc1ccccc1OCC(=O)N(Cc1ccccc1)C(C)C do in these assays?
BasE inh: -0.1

What do the screens show for `CC1(C)CC(=O)C(C(C2=C(O)CC(C)(C)CC2=O)c2ccccc2)=C(O)C1`?
BasE inh: 0.5

Results for CCn1c(CSc2nc(C)cc(C)n2)nnc1SCc1ccccc1 ?
LANA-nucl inh: 2.7; BasE inh: -3.9

What do the screens show for `CNS(=O)(=O)c1cccc(C(=O)OCC(=O)N2CCc3ccccc32)c1`?
BasE inh: 0.6

What do the screens show for `CC(C)c1ccc(OCc2nnc(SCC(=O)NC3CCCCC3)o2)cc1`?
LANA-nucl inh: 0.36; BasE inh: 0.0

What do the screens show for `CCOc1cc(N2CCOCC2)c(OCC)cc1NC(=O)c1cc(S(=O)(=O)N(C)C)ccc1Cl`?
BasE inh: 1.5

Additional entries
Results for N#Cc1ccc(-c2ccccc2)[nH]c1=O ?
LANA-nucl inh: 0.84; BasE inh: -0.1

Results for CS(=O)(=O)N1CCCc2cc(C(=O)NC3CCCCCCC3)ccc21 ?
LANA-nucl inh: 1.8; BasE inh: -8.7

Results for CCCn1c(O)c(C=Nc2ccccc2C(=O)NC2CC2)c(=O)[nH]c1=S ?
BasE inh: -3.4

What do the screens show for `COc1cccc(NC2OC(=O)c3ccccc32)c1` (stereo not given)?
LANA-nucl inh: -0.27; BasE inh: 2.1

How did CC(OC(=O)Cn1cnc2ccccc21)c1ccccc1Cl (stereo not given) do in these assays?
BasE inh: 2.8

How did O=C(NC1CCCCNC1=O)c1cn(S(=O)(=O)c2ccccc2)c2ccccc12 (stereo not given) do in these assays?
BasE inh: 1.1

Results for O=C(NCc1ccco1)c1ccc2c(c1)N(Cc1c(F)cccc1Cl)C(=O)CS2 ?
LANA-nucl inh: 0.81; BasE inh: 0.4

Results for CCOC(=O)CSC1=C(C#N)C(c2ccccc2C)C2=C(CCCC2=O)N1 (stereo not given) ?
LANA-nucl inh: -0.23; BasE inh: 2.0

What do the screens show for `O=c1c2ccccc2nnn1CN1CCCCC1`?
BasE inh: 3.4

Results for Cc1[nH]c2ccccc2c1C(=O)C(C)N1CCN(C/C=C/c2ccccc2)CC1 (stereo not given) ?
BasE inh: -2.1

How did CSc1cccc(NC(=S)Nc2cccc(SC)c2)c1 do in these assays?
BasE inh: 0.9

Results for CCCn1c(SCC(=O)C23CC4CC(CC(C4)C2)C3)n[nH]c1=O ?
BasE inh: 16

What do the screens show for `Cc1ccc(OC(=O)CCC(=O)Nc2ccc(S(N)(=O)=O)cc2)cc1`?
LANA-nucl inh: 0.059; BasE inh: 4.5

Results for CCOC(=O)C1CCCN(C/C=C/c2ccccc2)C1 (stereo not given) ?
LANA-nucl inh: -0.39; BasE inh: -2.3

What do the screens show for `Oc1ccc(Cl)cc1C=Nc1cccc2nsnc12`?
LANA-nucl inh: -1.4; BasE inh: 1.5

How did Cn1c(=O)c2ccccc2n2c(CCC(=O)N3CCc4ccccc4C3)nnc12 do in these assays?
LANA-nucl inh: 1.1; BasE inh: -3.7

How did COc1cc(Cl)c(NS(=O)(=O)c2ccc3c(c2)CC(C)N3C(C)=O)c(OC)c1 (stereo not given) do in these assays?
LANA-nucl inh: -0.54; BasE inh: -0.7

What do the screens show for `O=C(NC1CCCCCC1)c1cnc2n(c1=O)CCS2`?
LANA-nucl inh: -0.74; BasE inh: -1.7

What do the screens show for `CCC(C(=O)Nc1cc(OC)ccc1OC)n1nnc(C(=O)OC)c1C(=O)OC` (stereo not given)?
LANA-nucl inh: -0.23; BasE inh: 0.9

How did CCN(CC)CCCNc1ncnc2c1cnn2-c1ccc(C)cc1 do in these assays?
LANA-nucl inh: 0.028; BasE inh: -7.7

What do the screens show for `CCN(CC)CC(=O)NN1CC(=O)N(c2cccc(Cl)c2)CC1=O`?
LANA-nucl inh: -0.52; BasE inh: 1.3

Results for COc1cc(OC)cc(-c2nnc(SCC(=O)N=c3sccn3Cc3ccccc3Cl)o2)c1 ?
BasE inh: -0.7

What do the screens show for `O=C(Nc1ccccc1)C1CCCN(S(=O)(=O)c2ccccc2)C1` (stereo not given)?
LANA-nucl inh: -0.29; BasE inh: 2.7

What do the screens show for `O=C(c1cc(C2CC2)nn1-c1ccccc1)N1CCN(S(=O)(=O)c2ccc(F)cc2)CC1`?
BasE inh: -0.5

What do the screens show for `COc1ccc2c(c1)cc1n2CCN=C1NCCO`?
LANA-nucl inh: 0.44; BasE inh: -1.5

What do the screens show for `C=CCn1c(=S)[nH]c2ccc(Cl)cc2c1=O`?
BasE inh: 0.4

How did OC/C=C/C=C/c1ccc(F)cc1 do in these assays?
LANA-nucl inh: -0.76; BasE inh: 0.7

How did CCCNCC(=O)Nc1cc(Cl)ccc1Cl do in these assays?
BasE inh: -1.3

How did Cc1nc2ccccc2nc1CSc1nc2ccccc2o1 do in these assays?
BasE inh: 1.3

How did CCC(C)NC(=O)Cn1c2ccccc2c2cn[nH]c(=O)c21 (stereo not given) do in these assays?
LANA-nucl inh: -0.67; BasE inh: -0.4

Results for C=CCN1C(CC(=O)Nc2cccc(Cl)c2)C(=O)NC2CCCCC21 (stereo not given) ?
LANA-nucl inh: -0.72

How did O=C(CCCO)N=Nc1c(O)[nH]c2ccccc12 do in these assays?
LANA-nucl inh: 0.28; BasE inh: 1.2

Results for CC1CC(NC(=S)NC2CC3C=CC2C3)CC(C)(C)C1 (stereo not given) ?
BasE inh: 0.2

Results for CN(C)C(=S)NC(Cc1ccccc1)c1ccccc1 (stereo not given) ?
BasE inh: 1.6

Results for COC(=O)Cc1cc(OC(C)=O)n(-c2ccc(F)cc2)n1 ?
BasE inh: 0.9

What do the screens show for `COc1ccc(-c2noc(CSCC(=O)NC3CC3)n2)cc1`?
LANA-nucl inh: 0.98; BasE inh: -2.0

What do the screens show for `CCC(=O)Nc1ccc(NC(=O)c2ccc(OC)cc2OC)cc1`?
LANA-nucl inh: -0.8; BasE inh: 0.1

Results for CCCNC(=O)c1c(C)oc2ncn(CC(C)C)c(=O)c12 ?
BasE inh: 0.3

How did Cc1ccc(C)n1-c1ccccc1C1C=NNC1=O (stereo not given) do in these assays?
BasE inh: -0.1

How did O=C1C2C3c4ccccc4C(c4ccccc43)C2C(=O)N1O (stereo not given) do in these assays?
LANA-nucl inh: -1.1; BasE inh: 1.7

Results for Cc1ccc(C(=O)N2c3ccccc3CC2C)o1 (stereo not given) ?
LANA-nucl inh: -0.66; BasE inh: 0.4

Results for CC1CCC2C(O1)c1ccccc1OC2(C)C (stereo not given) ?
LANA-nucl inh: -0.38; BasE inh: 2.8

What do the screens show for `N#Cc1cnc2ccnn2c1N`?
LANA-nucl inh: 0.064; BasE inh: -1.6

Results for CN1CCN(S(=O)(=O)c2ccccc2C(F)(F)F)CC1 ?
BasE inh: 0.7

Not a retest: 2 of the compounds above.
Results for C=CCN1C(CC(=O)Nc2cccc(Cl)c2)C(=O)NC2CCCCC21 (stereo not given) ?
LANA-nucl inh: -0.72

How did O=C(CCCO)N=Nc1c(O)[nH]c2ccccc12 do in these assays?
LANA-nucl inh: 0.28; BasE inh: 1.2

Screening data from PubChem.

The list is partial; the hit share may differ from the screen's.
